Screening data deposited in PubChem by Broad Institute.
Vaccinia inh: blocks a specific stage of Vaccinia orthopoxvirus infection | Vaccinia-infected cells, mCherry/Venus stage reporter fluorescence; hits give low values; some inactives read as strong as hits | activity change (mCherry), % (concentration not given with the values) | 89,000 tested, 0.01% active;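 active means mCherry past -33% and 40 or more points under the early reporter, replicates agreeing; inconclusive means past -33% without that gap or agreement; tested in A549 cells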;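 further: scaled between vehicle wells and reference inhibitor wells; 23 nL library stock went into each well; one replicate is shown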
Vaccinia inh Venus: also measured in Vaccinia inh; calls as there; activity change (Venus), %; measured here: Venus reporter, other viral stage;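 negative = less Venus signal; first of two replicates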
Starred values were filed as active, the others as inactive. Some of the compounds tested; rates above refer to the full screens.

Results for Cc1noc(C)c1NC(=O)Nc1ccc2c(c1)C(=O)N([C@H](C)CO)C[C@@H](C)[C@H](CN(C)C)OCCCC[C@@H](C)O2 ?
Vaccinia inh: -7; Vaccinia inh Venus: -7

How did O=S(=O)(Cc1ccccc1)N1CCCCN2[C@H](CO)[C@H](c3ccc(-c4ccccc4)cc3)[C@@H]2C1 do in these assays?
Vaccinia inh: 12; Vaccinia inh Venus: -5

How did COC(=O)[C@@H]1[C@@H](CO)[C@@H]2Cn3c(ccc(-c4ccccc4F)c3=O)[C@H]1N2Cc1ccncc1 do in these assays?
Vaccinia inh: 4; Vaccinia inh Venus: 9

How did CO[C@@H](CN(C)S(=O)(=O)c1ccc(Cl)cc1)[C@@H](C)CN(Cc1ccccc1Cl)[C@@H](C)CO do in these assays?
Vaccinia inh: -4; Vaccinia inh Venus: 0

What do the screens show for `CN1C(=O)c2cc(NC(=O)c3cccc(C(F)(F)F)c3)ccc2OC[C@@H]2O[C@@H](CC(=O)NCCN3CCCC3)CC[C@H]21`?
Vaccinia inh: 2; Vaccinia inh Venus: 6

How did CCNC(=O)C[C@H]1CC[C@H]2[C@@H](COC[C@@H](O)CN2C(=O)c2cccnc2)O1 do in these assays?
Vaccinia inh: 30; Vaccinia inh Venus: 17

How did O=C(NCC[C@H]1CC[C@H](NS(=O)(=O)c2ccc(Cl)cc2)[C@@H](CO)O1)Nc1ccc(F)cc1 do in these assays?
Vaccinia inh: -8; Vaccinia inh Venus: 1

Results for CN1c2ccc(-c3ccccc3)cc2[C@@H]2[C@@H](CCN2C(=O)Cc2ccccn2)[C@@H]1CO ?
Vaccinia inh: -15; Vaccinia inh Venus: -10

Results for Cc1noc(C)c1S(=O)(=O)N(C)C[C@H]1OCc2cn(nn2)CCCC(=O)N([C@H](C)CO)C[C@H]1C ?
Vaccinia inh: 3; Vaccinia inh Venus: 5

What do the screens show for `CCCN1C[C@@H](C)[C@H](OC)CN(C)C(=O)c2cc(NC(=O)C3CC3)ccc2OC[C@H]1C`?
Vaccinia inh: 6; Vaccinia inh Venus: 9

How did CC(=O)N1CC2(C1)[C@H](c1ccc(-c3ccc(F)cc3)cc1)[C@@H](CO)N2C(C)=O do in these assays?
Vaccinia inh: -7; Vaccinia inh Venus: -1

What do the screens show for `C[C@H]1CN([C@@H](C)CO)C(=O)Cc2cc(NC(=O)C3CC3)ccc2O[C@H]1CN(C)CC1CCCCC1`?
Vaccinia inh: -5; Vaccinia inh Venus: 5

What do the screens show for `C[C@@H]1CN([C@H](C)CO)C(=O)c2cc(NS(=O)(=O)c3ccc(F)cc3)ccc2O[C@@H]1CN(C)Cc1ccncc1`?
Vaccinia inh: 0; Vaccinia inh Venus: 6

How did CC=Cc1ccc2n(c1=O)C[C@H]1[C@H](CO)[C@@H](C(=O)NCC3CC3)N(Cc3nccs3)[C@@H]21 (mixture of isomers) do in these assays?
Vaccinia inh: -5; Vaccinia inh Venus: 1

How did C[C@@H]1CN([C@H](C)CO)C(=O)Cc2cc(NC(=O)C3CC3)ccc2O[C@H]1CN(C)C(=O)Nc1ccc2c(c1)OCO2 do in these assays?
Vaccinia inh: 4; Vaccinia inh Venus: 6

How did O=C(C[C@@H]1CC[C@H](NC(=O)C2CC2)[C@H](CO)O1)Nc1ccccc1 do in these assays?
Vaccinia inh: 2; Vaccinia inh Venus: -3

Results for O=C(C[C@@H]1C[C@H]2c3cc(NC(=O)Nc4ccccc4F)ccc3O[C@H]2[C@H](CO)O1)NCc1ccccn1 ?
Vaccinia inh: 1; Vaccinia inh Venus: -5

What do the screens show for `C[C@@H]1CN([C@@H](C)CO)S(=O)(=O)c2ccc(-c3ccncc3)cc2O[C@H]1CN(C)Cc1ccccc1`?
Vaccinia inh: inconclusive

What do the screens show for `CO[C@@H]1CN(C)C(=O)c2ccc(NC(=O)Nc3ccccc3F)cc2OC[C@H](C)N(C)C[C@@H]1C`?
Vaccinia inh: -9; Vaccinia inh Venus: -16

How did CN1CCN(C(=O)C[C@H]2C[C@H]3c4cc(NC(=O)Cc5ccncc5)ccc4O[C@H]3[C@H](CO)O2)CC1 do in these assays?
Vaccinia inh: 1; Vaccinia inh Venus: 9

Pulled by compound from above, 2 records:
What do the screens show for `C[C@@H]1CN([C@H](C)CO)C(=O)c2cc(NS(=O)(=O)c3ccc(F)cc3)ccc2O[C@@H]1CN(C)Cc1ccncc1`?
Vaccinia inh: 0; Vaccinia inh Venus: 6

What do the screens show for `CCCN1C[C@@H](C)[C@H](OC)CN(C)C(=O)c2cc(NC(=O)C3CC3)ccc2OC[C@H]1C`?
Vaccinia inh: 6; Vaccinia inh Venus: 9

Carrying on.
How did C[C@H](CO)N1C[C@H](C)[C@H](CN(C)C(=O)Cc2cccnc2)Oc2ncc(C#CC3(O)CCCC3)cc2C1=O do in these assays?
Vaccinia inh: 14; Vaccinia inh Venus: 12

What do the screens show for `C[C@@H]1CN([C@@H](C)CO)C(=O)Cc2cc(NC(=O)Cc3ccccc3)ccc2O[C@@H]1CN(C)Cc1ccc(C(F)(F)F)cc1`?
Vaccinia inh: inconclusive

What do the screens show for `COc1ccccc1NC(=O)N(C)C[C@H]1OCc2ccccc2-c2ccccc2C(=O)N([C@@H](C)CO)C[C@@H]1C`?
Vaccinia inh: 19; Vaccinia inh Venus: 6

What do the screens show for `CN1CCN(C(=O)C[C@H]2CC[C@@H]3[C@H](COc4ccc(NC(=O)C5CC5)cc4C(=O)N3C)O2)CC1`?
Vaccinia inh: 11; Vaccinia inh Venus: 6

What do the screens show for `COc1ccc(S(=O)(=O)Nc2ccc3c(c2)C(=O)N([C@H](C)CO)C[C@H](C)[C@H](CN(C)C(=O)CCC(F)(F)F)OCCCC[C@H](C)O3)cc1`?
Vaccinia inh: -3; Vaccinia inh Venus: -2

Results for C[C@@H]1CN([C@@H](C)CO)S(=O)(=O)c2ccc(-c3cccc(C#N)c3)cc2O[C@H]1CN(C)C(=O)c1cccnc1 ?
Vaccinia inh: 22; Vaccinia inh Venus: 24

What do the screens show for `Cc1ccc(S(=O)(=O)NCC[C@H]2CC[C@H](NC(=O)CC3CC3)[C@H](CO)O2)cc1`?
Vaccinia inh: 1; Vaccinia inh Venus: 3

What do the screens show for `COCC(=O)N[C@@H]1C=C[C@H](CC(=O)NCc2ccc(Cl)cc2)O[C@H]1CO`?
Vaccinia inh: 12; Vaccinia inh Venus: 2

What do the screens show for `N#C[C@@H]1[C@@H](c2ccccc2-c2cccc(F)c2)[C@H](CO)N1C(=O)NC1CCCC1`?
Vaccinia inh: -14; Vaccinia inh Venus: -5

How did Cc1cc(C(=O)Nc2ccc3c(c2)C(=O)N(C)[C@H]2CC[C@@H](CC(=O)N[C@H](C)c4ccccc4)O[C@@H]2CO3)no1 do in these assays?
Vaccinia inh: -1; Vaccinia inh Venus: 3

How did CC(=O)N(C)C[C@@H]1Oc2ncc(C#Cc3ccccn3)cc2C(=O)N([C@H](C)CO)C[C@H]1C do in these assays?
Vaccinia inh: -2; Vaccinia inh Venus: 10

Results for O=C(C[C@H]1CC[C@@H](NC(=O)c2cccc(F)c2)[C@@H](CO)O1)NCc1ccccc1 ?
Vaccinia inh: 6; Vaccinia inh Venus: 12

How did N#C[C@@H]1[C@@H](c2ccccc2)[C@@H](CO)N1C(=O)c1cccnc1 do in these assays?
Vaccinia inh: 5; Vaccinia inh Venus: 15

How did O=C(Nc1cc(F)ccc1F)N1CC(=O)N2[C@@H](CO)[C@H](c3ccc(C#CC4CCCCC4)cc3)[C@@H]2C1 do in these assays?
Vaccinia inh: inconclusive

Results for CC(C)CC#Cc1cnc2c(c1)C(=O)N([C@H](C)CO)C[C@H](C)[C@H](CN(C)C(=O)c1cnccn1)O2 ?
Vaccinia inh: 21; Vaccinia inh Venus: 4

What do the screens show for `CN(C)CCCNC(=O)C[C@H]1CC[C@H]2[C@@H](COC[C@H](O)CN2CC2CCCC2)O1`?
Vaccinia inh: 4; Vaccinia inh Venus: 9

How did Cc1noc(C)c1NC(=O)Nc1ccc2c(c1)C(=O)N(C)[C@H]1CC[C@@H](CC(=O)N(C)C)O[C@H]1CO2 do in these assays?
Vaccinia inh: 5; Vaccinia inh Venus: 4

Results for C[C@@H]1CN([C@@H](C)CO)C(=O)Cc2cc(NC(=O)CCC(F)(F)F)ccc2O[C@@H]1CN(C)C(=O)NC1CCCCC1 ?
Vaccinia inh: 0; Vaccinia inh Venus: 0

What do the screens show for `C[C@@H]1CCCCO[C@@H](CN(C)CC2CC2)[C@H](C)CN([C@H](C)CO)C(=O)c2cc(NC(=O)Cc3ccccc3)ccc2O1`?
Vaccinia inh: -21; Vaccinia inh Venus: -16

What do the screens show for `CCNC(=O)C[C@@H]1CC[C@H](NC(=O)C2CCOCC2)[C@H](CO)O1`?
Vaccinia inh: 5; Vaccinia inh Venus: 4

How did O=C(C[C@H]1C[C@H]2c3cc(NS(=O)(=O)c4ccccc4)ccc3O[C@H]2[C@H](CO)O1)N1CCCCC1 do in these assays?
Vaccinia inh: -4; Vaccinia inh Venus: -9

How did C[C@H]1CN([C@@H](C)CO)C(=O)Cc2cc(NS(=O)(=O)c3cccs3)ccc2O[C@H]1CN(C)C(=O)Nc1ccc2c(c1)OCO2 do in these assays?
Vaccinia inh: -7; Vaccinia inh Venus: 11

How did COCC(=O)N1CC[C@@H]2[C@H](CO)Nc3ccc(-c4cccc(C(=O)N(C)C)c4)cc3[C@@H]21 do in these assays?
Vaccinia inh: 2; Vaccinia inh Venus: 9

What do the screens show for `C[C@@H]1CCCCO[C@H](CN(C)C(=O)CCC(F)(F)F)[C@@H](C)CN([C@@H](C)CO)C(=O)c2cc(N(C)C)ccc2O1`?
Vaccinia inh: -7; Vaccinia inh Venus: -5

What do the screens show for `CO[C@@H]1CN(C)C(=O)c2cc(NC(=O)C3CCC3)ccc2OC[C@H](C)N(C(=O)CN(C)C)C[C@H]1C`?
Vaccinia inh: -1; Vaccinia inh Venus: 8

Results for O=C(Nc1cc(F)ccc1F)N[C@@H]1CC[C@@H](CC(=O)N2CCc3ccccc3C2)O[C@@H]1CO ?
Vaccinia inh: -20; Vaccinia inh Venus: -12

Results for C[C@@H]1CN([C@@H](C)CO)S(=O)(=O)c2ccc(C#CC(C)(C)O)cc2O[C@H]1CN(C)C(=O)C1CCCCC1 ?
Vaccinia inh: -8; Vaccinia inh Venus: -10

What do the screens show for `COc1ccccc1-c1cnc2c(c1)C(=O)N([C@H](C)CO)C[C@@H](C)[C@H](CN(C)Cc1ccc(C(=O)O)cc1)O2`?
Vaccinia inh: 19; Vaccinia inh Venus: 11

What do the screens show for `C[C@H](CO)N1C[C@H](C)[C@@H](CN(C)Cc2ccc(Oc3ccccc3)cc2)OCc2cnnn2CCCC1=O`?
Vaccinia inh: -33; Vaccinia inh Venus: -34

How did CC(=O)[C@]12O[C@@]3(COC[C@H](c4ccccc4)N3C1=O)[C@H]1C(=O)N(c3ccccc3)C(=O)[C@H]12 do in these assays?
Vaccinia inh: 0; Vaccinia inh Venus: 0

Results for C[C@H](CO)N1C[C@H](C)[C@H](CN(C)Cc2ccc3c(c2)OCO3)OCCCC[C@H](C)Oc2ccc(NC(=O)Nc3ccc(C(F)(F)F)cc3)cc2C1=O ?
Vaccinia inh: inconclusive

What do the screens show for `COc1cccc(-c2ccccc2[C@@H]2[C@@H](CO)N(C(=O)Cc3ccccc3)[C@H]2C#N)c1`?
Vaccinia inh: -25; Vaccinia inh Venus: -16

What do the screens show for `Cc1ccc(S(=O)(=O)Nc2ccc3c(c2)CC(=O)N([C@H](C)CO)C[C@@H](C)[C@H](CN(C)Cc2ccccc2)O3)cc1`?
Vaccinia inh: 7; Vaccinia inh Venus: 1

What do the screens show for `CN(C)C(=O)c1ccc(-c2ccc([C@H]3[C@H](CO)N4CCCCN(Cc5cncnc5)C[C@@H]34)cc2)cc1`?
Vaccinia inh: 13; Vaccinia inh Venus: 5

How did COCC(=O)N1C[C@H](C)[C@H](OC)CN(C)C(=O)c2ccc(NC(=O)Nc3ccccc3)cc2OC[C@H]1C do in these assays?
Vaccinia inh: 14; Vaccinia inh Venus: 13

What do the screens show for `C[C@H](CO)N1C[C@H](C)[C@@H](CN(C)C(=O)Nc2ccccc2)Oc2ccc(NC(=O)C3CCCCC3)cc2C1=O`?
Vaccinia inh: 14; Vaccinia inh Venus: 7

Results for C[C@H](CO)N1C[C@H](C)[C@H](CN(C)CC2CCCCC2)OCCCC[C@H](C)Oc2ccc(NC(=O)Cc3ccccc3)cc2C1=O ?
Vaccinia inh: inconclusive

Results for C[C@@H](NC(=O)[C@@H]1[C@@H](CO)[C@@H]2Cn3c(ccc(C4=CCCCC4)c3=O)[C@H]1N2)c1ccccc1 ?
Vaccinia inh: -6; Vaccinia inh Venus: -5

Results for O=C(C[C@@H]1C=C[C@H](NC(=O)C2CCC2)[C@H](CO)O1)NC1CCC1 ?
Vaccinia inh: -3; Vaccinia inh Venus: 4

Grouped by structure: the compounds so far containing a CF3 group
What do the screens show for `CN1C(=O)c2cc(NC(=O)c3cccc(C(F)(F)F)c3)ccc2OC[C@@H]2O[C@@H](CC(=O)NCCN3CCCC3)CC[C@H]21`?
Vaccinia inh: 2; Vaccinia inh Venus: 6

What do the screens show for `C[C@@H]1CN([C@@H](C)CO)C(=O)Cc2cc(NC(=O)Cc3ccccc3)ccc2O[C@@H]1CN(C)Cc1ccc(C(F)(F)F)cc1`?
Vaccinia inh: inconclusive

What do the screens show for `COc1ccc(S(=O)(=O)Nc2ccc3c(c2)C(=O)N([C@H](C)CO)C[C@H](C)[C@H](CN(C)C(=O)CCC(F)(F)F)OCCCC[C@H](C)O3)cc1`?
Vaccinia inh: -3; Vaccinia inh Venus: -2

Results for C[C@@H]1CN([C@@H](C)CO)C(=O)Cc2cc(NC(=O)CCC(F)(F)F)ccc2O[C@@H]1CN(C)C(=O)NC1CCCCC1 ?
Vaccinia inh: 0; Vaccinia inh Venus: 0

What do the screens show for `C[C@@H]1CCCCO[C@H](CN(C)C(=O)CCC(F)(F)F)[C@@H](C)CN([C@@H](C)CO)C(=O)c2cc(N(C)C)ccc2O1`?
Vaccinia inh: -7; Vaccinia inh Venus: -5

Results for C[C@H](CO)N1C[C@H](C)[C@H](CN(C)Cc2ccc3c(c2)OCO3)OCCCC[C@H](C)Oc2ccc(NC(=O)Nc3ccc(C(F)(F)F)cc3)cc2C1=O ?
Vaccinia inh: inconclusive
